From PubChem BioAssay
Six1-Eya2 inh: Six1/Eya2 interaction inhibition; activity change, % (test concentration not listed); AlphaScreen GST-Six1/His-Eya2 binding, biochemical; hits give low values; control for the full effect not named in the record; 360,000 tested, 0.56% active; in the data active = activity change below about -65%; inconclusive = about -30% to -65%; inactive = above about -30%; note: % is set by controls: 0 for no effect and ±100 for the full control effect; compound concentration not given in the record
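AlphaScreen with GST-Six1 and His-Eya2 (5X mix: 250 nM and 500 nM), glutathione donor and nickel acceptor beads; buffer 50 mM Tris pH 8.0, 300 mM NaCl, 1 mM TCEP; 1 h at 37 C in the dark.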
D2 agonist: activates the human D2 dopamine receptor; activation, % (no concentration beside the values); DiscoveRx PathHunter D2 beta-arrestin, luminescence, 90 min; 100% = 57 uM dopamine signal; 360,000 tested, 0.084% active; in the data active = activation above about 40%; inconclusive = about 15% to 40%; inactive = below about 15%; note: compound concentration not given in the record; the text of the record calls up to 30% inactive
Target sequence (P14416 whole entry, looked up): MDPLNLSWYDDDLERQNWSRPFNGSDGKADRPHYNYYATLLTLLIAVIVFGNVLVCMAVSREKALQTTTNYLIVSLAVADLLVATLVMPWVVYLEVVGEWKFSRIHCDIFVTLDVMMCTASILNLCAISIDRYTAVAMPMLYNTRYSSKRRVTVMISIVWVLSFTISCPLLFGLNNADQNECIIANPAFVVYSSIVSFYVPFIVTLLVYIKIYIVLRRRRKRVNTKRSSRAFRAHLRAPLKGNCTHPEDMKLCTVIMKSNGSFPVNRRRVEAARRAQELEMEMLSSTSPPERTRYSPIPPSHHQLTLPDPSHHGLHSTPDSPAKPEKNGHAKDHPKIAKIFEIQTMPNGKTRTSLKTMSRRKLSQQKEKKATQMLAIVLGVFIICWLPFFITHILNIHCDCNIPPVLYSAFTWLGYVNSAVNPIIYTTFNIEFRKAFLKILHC
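DiscoveRx PathHunter D2 beta-arrestin cells (2,100/well) attached overnight, then compound-stimulated 90 min at 37 C in HBSS/10 mM HEPES/0.1% Tween-20 buffer; beta-galactosidase complementation read by luminescence after 1 h at ambient temperature. Dopamine 57 uM final (EC100) as control.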
D2 PAM: positive allosteric modulators of human D2 dopamine receptor; P14416; DiscoveRx D2 beta-arrestin cells, luminescence, 90 min; 100% = 57 uM dopamine signal; potentiation, % (no concentration beside the values); 360,000 tested, 0.23% active; active = potentiation of 50% or more; inconclusive = 30% to 50%; inactive = 30% or less;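 note: compound concentration not given in the record; tested on top of an EC20 dose of dopamine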
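PathHunter D2 cells, attached overnight at 37 deg C, received compound in DMSO plus dopamine at EC20 (50 nM final) for 90 min at 37 deg C. Beta-arrestin recruitment was read as luminescence after 1 h with detection reagent at ambient temperature.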
gsp ag: gsp mutant agonism. gsp mutant cells, cAMP HTRF, 30 min; control for the full effect not named in the record. Potency, µM (top dose mostly 76.9 µM), without a hit: at the highest dose activation (cAMP increase), usual class: activators. 340,000 tested, 0.13% active; active = well fitted activation curve with a large enough effect; inconclusive = small, poorly fitted or top-dose-only effect, or another doubt; inactive = no such curve, though single readings can be large or run the other way; cell line not stated here;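 note: phosphodiesterase inhibitor Ro 20-1724 added with compounds to block cAMP breakdown; potency is the fitted concentration of half-maximal effect; nearly all actives have a fitted effect of over 60% in size; about a fifth of the inactives were tested at one dose only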
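Cells in DMEM/10% FBS with G418 were pretreated with compounds in DMSO plus […] (300 uM stock) for 30 min at 37C. cAMP was measured by HTRF (cAMP-d2 plus anti-cAMP antibody-K) after 30 min at room temperature.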
gsp antag: antagonizes gsp, the McCune-Albright syndrome mutation; Potency, µM (highest dose often 76.9 µM), for inactives: at the highest dose activity change, negative = inhibition, hits mostly inhibitors; gsp-mutant cells, cAMP HTRF, 30 min; control for the full effect not named in the record; 340,000 tested, 0.4% active; active = falling curve of any shape with a large fitted effect; inconclusive = falling curve, mostly with a smaller effect; inactive = flat or rising curve; cell line not stated here;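 note: intracellular cAMP measured with PDE inhibitor Ro 20-1724 present during compound exposure; potency is the fitted concentration of half-maximal effect; % is set by controls: 0 for no effect and ±100 for the full control effect; nearly all actives have a fitted effect of over 65% in size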
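Cells, 2000/well, grown 16–24 h in DMEM 10% FBS with 0.5 mg/ml G418, then compounds plus […] (300 uM addition stock), 30 min at 37C. cAMP read by HTRF (cAMP-d2 and anti-cAMP antibody-K in lysis buffer) after 30 min RT.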
CtBP-E1A blk: CtBP/E1A binding inhibition; 340,000 tested, 0.49% active; AlphaScreen GST-E1A/His-CtBP binding, 1536-well; hits give low values; control for the full effect not named in the record; activity change, % (no concentration beside the values); in the data active means activity change below about -65%; inconclusive means about -30% to -65%; inactive means above about -30%; note: % is set by controls: 0 for no effect and ±100 for the full control effect; compound concentration not given in the record
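GST-E1A and His-tagged CtBP (125 nM each as 5X stock) were preincubated with pin-transferred compound for 2 h at 37 °C in the dark, then glutathione donor and nickel acceptor beads were added for 1 h before AlphaScreen reading.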
Numbers without * were called inactive; ? = inconclusive; . = not tested or not shown; [ ] = remark or other dose.

SMILES	Six1-Eya2 inh	D2 agonist	D2 PAM	gsp ag	gsp antag	CtBP-E1A blk
Cc1cccc(C)c1NC(=O)CN(C)C(=O)CCC(=O)N1CCOCC1	-1	-1.2	-9	15%[15.4 µM]	-1%	7
Cc1cccc(Oc2ccc(NS(=O)(=O)c3ccc(C)c(C(=O)O)c3)cc2)c1	-1	-1.6	2	-24%	7%	6
O=C(OCc1ccccc1F)c1ccc2c(c1)OCCO2	37	0.5	17	4%	-27%	24
C=CCN1C(=S)N[C@@H]2CS(=O)(=O)C[C@@H]21	2	4.1	15	-3%[15.4 µM]	3%	3
CC(Oc1ccccc1)c1ccnn1S(=O)(=O)c1ccccc1 (centres undefined)	10	-4.4	-6	-24%	2%	8
O=c1[nH]c(SCc2nc3ccccc3n2Cc2ccccc2)nc2ccccc12	-2	0.1	-7	16%	16%	4
CC(=O)Nc1nc2ccc(NC(=O)c3ccco3)cc2s1	-2	-1.1	26	-35%[inhibitor]	-1%	-2
COc1cccc(/C=N/NC(=O)CNC(=O)C(c2ccccc2)c2ccccc2)c1O	?	-2.9	-4	21%	-15%	?
CC(C)N1C(=S)SC(C)(C)C1n1oc(=O)n(-c2ccc(Cl)c(Cl)c2)c1=O (centres undefined)	1	0.9	-10	7%	-21%	-5
Cc1ccc(C)c(N2CCN(C(=O)c3ccc4nsnc4c3)CC2)c1	-5	5.5	-4	?	-14%	0
CC1CCN(C(=O)C(NS(=O)(=O)c2cccc3nsnc23)c2ccccc2)CC1 (centres undefined)	0	0.5	-12	-24%	-22%	-7
O=C1COc2ccc(-c3csc(=Nc4ccc(OC(F)F)cc4)n3CC3CCCO3)cc2N1 (centres undefined)	-23	-4.5	-20	1%	?	-24
C[C@H](CO)N1C[C@H](C)[C@@H](CN(C)C(=O)NC2CCCCC2)Oc2c(NC(=O)c3ccncc3)cccc2C1=O	0	-2.7	-5	1%	8%	.
O=C1C2C3C=CC(C4CC34)C2C(=O)N1CCCCN1CCN(c2ccc(F)cc2)CC1 (centres undefined)	-11	-2.6	-14	5%[15.4 µM]	7%	-1
COc1cccc(NC(=O)CSc2nnc(-c3ccco3)c(-c3ccco3)n2)c1	?	0.6	4	-17%[15.4 µM]	-8%	?
O=C(NC(=S)Nc1ccc(C(F)(F)F)cc1)c1csnn1	-8	-7.8	-9	-6%[15.4 µM]	-12%	-10
CN(CCOc1ccccc1)C(=O)c1ccc(OC2CCN(C(=O)C3CC3)CC2)cc1	4	-3.7	0	-9%[15.4 µM]	-15%	8
CNC(=O)OCc1cccc(COC(=O)NC)n1	-1	-2.1	11	2%	-13%	6
NC(=O)C1CCN(C(=O)c2ccc(CS(=O)(=O)c3c(Cl)cccc3Cl)o2)CC1	11	-5.0	-13	12%	?	-5
COC(=O)C1=C(C(=O)OC)SC(=C2C(=S)C(C)(C)N(C(=O)C(C)C)c3ccccc32)S1	?	-3.0	-17	-73%[inhibitor]	-4%	9
NS(=O)(=O)c1ccc(CNC(=O)c2ccc(Cl)c(S(=O)(=O)NCc3ccccc3)c2)cc1	8	-3.9	-4	16%	6%	-1
COc1cc(CNC2CCCC2)c(Br)cc1OCc1ccccc1	-7	-9.7	-11	-2%[15.4 µM]	12%	6
N#CCOc1ccccc1CNC[C@H]1O[C@@H](n2cnc3c(=O)[nH]c(N)nc32)[C@H](O)[C@@H]1O	-11	-1.3	1	.	.	-11
CN(C)C(CNC(=O)c1ccc([N+](=O)[O-])cc1Cl)c1ccco1 (centres undefined)	-4	4.0	-2	31%	-2%	3
COc1cc(OC)cc(-c2nnc(SCC(=O)N(C(C)C)C(C)C)o2)c1	-2	-0.9	-4	-7%	-8%	-3
Cc1ccc(NC(=O)N2CCCC2c2cccs2)cc1 (centres undefined)	4	-2.9	0	-13%	1%	2
O=C(NCc1ccc(F)cc1)c1ccc(N2CCc3ccccc32)c([N+](=O)[O-])c1	?	-7.8	-17	-9%[15.4 µM]	-15%	?
COC(=O)COc1ccccc1/C=C1/NC(=O)NC1=O	-15	-1.3	-33	-10%	5%	2
CCOC(=O)N1CCC(N2CCN(S(=O)(=O)c3ccc4ccccc4c3)CC2)CC1	-11	1.2	-7	0%	-11%	-23
CCCOP(=O)(c1ccc(N(C)C)cc1)C(Nc1ccccc1)c1ccc(C)cc1 (centres undefined)	-15	-2.1	-13	12%[15.4 µM]	-34%	0
CCC(C)c1ccccc1NC(=O)CN(C)CC(=O)Nc1ccccc1SC (centres undefined)	-1	2.5	2	-6%[15.4 µM]	-6%	1
O=S(=O)(NCc1ccc2c(c1)OCO2)c1ccccc1F	9	-0.1	-4	-55%[inhibitor]	10%	5
C=CCNC(=S)N/N=C/c1ccc(C)cc1C	-13	-7.4	-11	6%[15.4 µM]	-5%	-12
COc1cccc(C(NC(=O)c2ccccc2F)NC(=O)c2ccccc2F)c1	6	-2.6	-2	-1%	9%	2
COC(=O)N/N=C\c1cccc(OC(=O)c2cccs2)c1	9	6.9	6	10%	4%	8
COc1ccc(CCNC(=O)c2cc3c(=O)n4ccccc4nc3n(Cc3ccco3)c2=N)cc1OC	-9	3.0	-5	25%	1%	.
CCOc1ccc(-n2nc(C(=O)N3CCN(CC)CC3)c3ccccc3c2=O)cc1	1	-2.2	-9	-14%	4%	4
COc1ccc(N2C(=O)/C(=C\c3ccco3)N=C2SCC(=O)N(C(C)C)C(C)C)cc1Cl	1	-3.3	15	-11%	-24%	-6
COc1cc(C)c(NC(=S)Nc2cccc(Cl)c2)cc1OC	8	-1.3	-18	?	6%	20
CCOC(=O)c1sc(S(C)=O)c2c1CCc1conc1-2 (centres undefined)	3	0.3	2	-11%	-8%	.
O=C1Nc2ccccc2N=C(c2ccccc2)C1N(C(=O)c1ccnc2ccccc12)c1ccccc1 (centres undefined)	-10	-6.5	-12	.	.	-20
O=C1CSC(c2ccccc2)N1CCc1ccccc1 (centres undefined)	11	-4.4	-16	?	-7%	.
CC1CC2(C)C(=CC1=O)CCC1C2C(O)CC2(C)C1CCC2(O)C(=O)CO (centres undefined)	10	-0.3	-9	22%	-5%	9
Cc1c(Cl)cccc1NC(=O)[C@@]1(CC(=O)O)CC(/C=C/c2ccccc2)=NO1	0	2.9	2	-23%[15.4 µM]	-38%	0
Cc1cc2nnc(SCC(=O)N3CCCCCC3)n2c(N)n1	-3	-0.4	-2	?	9%	13
CC(CC(=O)NCCc1ccc(F)cc1)c1ccccc1 (centres undefined)	0	-4.2	-23	-26%	-1%	.
CCc1ccc(NC(=O)Cn2nc(C(=O)O)c3ccccc3c2=O)cc1	-2	-2.7	-18	-17%[15.4 µM]	.	-11
CCOC(=O)Cn1c(O)c(N=NC(=O)CNC(=O)Cc2ccccc2)c2ccccc21	-8	-0.7	-4	29%	-13%	-2

Quoted at random: 3 compounds from above.
SMILES	Six1-Eya2 inh	D2 agonist	D2 PAM	gsp ag	gsp antag	CtBP-E1A blk
CCOC(=O)Cn1c(O)c(N=NC(=O)CNC(=O)Cc2ccccc2)c2ccccc21	-8	-0.7	-4	29%	-13%	-2
O=C1Nc2ccccc2N=C(c2ccccc2)C1N(C(=O)c1ccnc2ccccc12)c1ccccc1 (centres undefined)	-10	-6.5	-12	.	.	-20
CC(CC(=O)NCCc1ccc(F)cc1)c1ccccc1 (centres undefined)	0	-4.2	-23	-26%	-1%	.

The listing continues.
SMILES	Six1-Eya2 inh	D2 agonist	D2 PAM	gsp ag	gsp antag	CtBP-E1A blk
Cc1cccc(NC(=O)CNC(=O)C(NC(=O)Cc2ccccc2)C(C)C)c1C (centres undefined)	2	3.6	-3	-10%	9%	8
COc1cccc(C=Nc2ccccc2C(=O)Nc2ccccc2)c1O	6	-1.4	-34	-11%	-2%	4
CCOc1ccc(CN2CCC(=O)NC2=O)cc1	1	-1.4	-16	?	3%	10
CN(C)c1cccc(NC(=O)C2Cc3c(-c4ccc(Cl)cc4)ccnc3O2)c1 (centres undefined)	?	-5.5	-10	.	.	?
ON(CCc1ccccn1)Cc1ccccc1	0	4.4	-2	-47%[inhibitor]	-3%	5
CCOC(=O)C1(CCc2ccccc2)CCN(Cc2cc(OC)c(OC)cc2OC)CC1	?	-6.3	-27	1%	-2%	-30
COc1ccc(NC(=O)CSc2nnc(Cc3cccn3C)n2CCc2ccccc2)cc1OC	-16	0.9	-10	-9%	-11%	?
CCOC(=O)CCNC(=O)N1CCCC(C(=O)c2cc(C)c(OC)c(C)c2)C1 (centres undefined)	2	4.2	0	-1%[15.4 µM]	-2%	0
O=Cc1c[nH]c2ccc(OCc3ccccc3)cc12	2	1.5	-8	?	-11%	.
Cc1nnc(SCC(=O)Nc2ccccc2)c2ccccc12	0	-2.5	1	20%[15.4 µM]	6%	-1
CCNC(=O)c1ccccc1-c1nc(-c2ccccc2Cl)no1	-1	-4.8	-2	-2%	-12%	-2
CN(CCNC(=O)c1cn(C)c2ccc(S(=O)(=O)N3CCCC3)cc2c1=O)CCc1ccccc1	5	0.7	-26	3%	5%	8
O=C(CNC(=O)c1ccco1)N/N=C/c1cc(Br)ccc1O	-97*	-2.5	-1	-8%[15.4 µM]	16%	-86*
CCCC1=C(C(=O)OCC)C(c2sccc2C)n2ncnc2N1 (centres undefined)	-1	-5.6	-2	29%	0%	.
Cc1nc([N+](=O)[O-])c(Sc2nc3ccc([N+](=O)[O-])cc3[nH]2)n1Cc1ccccc1	-11	-15	-38	-3%	-21%	23
CCN(CC(=O)Nc1cccc(OC)c1)C(=O)c1ccncc1	6	-2.9	-3	-1%[15.4 µM]	7%	4
O=c1c(N2CCOCC2)nsnc1N1CCOCC1	2	-4.0	3	-4%	-5%[15.4 µM]	4
Cn1nnc2cc(C(=O)NCCC3=CCCCC3)ccc21	4	-0.9	-20	0%	1%	1
CCCCNC(=O)Cc1cc(=O)[nH]c(=O)[nH]1	2	-1.7	0	-29%	13%	5
CCCCn1c(O)c2n(c1=O)Cc1ccccc1N=C2c1ccc(OC)cc1	-20	1.9	1	.	.	-8
Cc1cccc(NC(=O)CS(=O)(=O)c2cn(C)c3ccccc23)c1C	7	-1.7	-5	-31%[inhibitor]	-5%	4
Cc1nn(C(=O)c2c([N+](=O)[O-])cnn2C)c(C)c1Cl	5	-3.5	-11	-40%[inhibitor]	2%	0
C#CCN(C[C@@H]1[C@@H](OC(=O)Nc2cccs2)[C@@H](OC(=O)Nc2cccs2)Cn2c(=O)ccc(=O)n21)S(=O)(=O)c1ccc(C)cc1	-5	1.1	0	-99%[inhibitor]	.	-9
Brc1ccc(-c2nnc(-c3ccco3)o2)cc1	6	-1.9	-17	-14%	8%	6
CSc1ccc(C2Nc3cccc4cccc(c34)N2)cc1	10	54*	58*	-5%	7%	.
CCc1c(C)sc(NC(=O)c2cc(CC(C)C)on2)c1C#N	9	-5.3	-5	2%	-26%	1
